Calb biofilm kill – clotrimazole potentiators killing C. albicans biofilm, primary screen, 4-compound mixtures. C. albicans biofilm persisters + clotrimazole, fluorescence viability; primary screen in compound mixtures of four per well. inhibition, % at 7.6 µM. 0.02% of 120,000 active. AID 1242, 2008;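 active means inhibition above 30.3% in the primary screen of four-compound pools, then above 30% when the compound was retested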;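 further: compounds exposed to preformed 24 h biofilms for 48 h; the number belongs to the whole pool; some results filed as inactive read as strong as hits; inactives centre near 12; 0% = biofilm with clotrimazole alone and 100% = kill control; retested singly at about 60 µM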
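Assay system: C. albicans biofilms / Medium: RPMI/MOPS medium, pH 7.0 / Schedule: biofilm formation 24 h, compound exposure 48 h, 37 °C / Measured by: Alamar Blue fluorescence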
Numbers without * were called inactive.

A first look, 4 compounds:
SMILES	Calb biofilm kill
C(=N\Nc1ccccn1)/c1ccc2c(c1)OCCO2	9.1
CN(C(=O)Cc1c(C(=O)O)n(C)c2ccccc12)c1ccc(F)cc1	9.9
COc1ccc(/C=C2/SC(=O)N(CCNC(=O)C3COc4ccccc4O3)C2=O)cc1 (centres undefined)	27.3
COc1ccc2c(c1)C(SCC(=O)NCCc1ccc(Cl)cc1)CC(C)(C)O2 (centres undefined)	11.7

Results, from the start:
SMILES	Calb biofilm kill
C(=N\Nc1ccccn1)/c1ccc2c(c1)OCCO2	9.1
CN(C(=O)Cc1c(C(=O)O)n(C)c2ccccc12)c1ccc(F)cc1	9.9
COc1ccc(/C=C2/SC(=O)N(CCNC(=O)C3COc4ccccc4O3)C2=O)cc1 (centres undefined)	27.3
COc1ccc2c(c1)C(SCC(=O)NCCc1ccc(Cl)cc1)CC(C)(C)O2 (centres undefined)	11.7
FC(F)(F)c1ccc(Cl)c(-n2c(Cc3cccs3)n[nH]c2=S)c1	-5.9
Cc1[nH]c(=O)c(C#N)c(C)c1[N+](=O)[O-]	-2.4
N/C(=N\OC(=O)CCCOc1ccccc1)c1ccc([N+](=O)[O-])cc1	10.4
COCc1cc(C)n(CC(=O)NCc2ccccc2)c(=O)c1C#N	9.1
Cc1ccc2nc(N(CCCN(C)C)C(=O)c3ccc(Br)s3)sc2c1	15.6
COc1ccc(NS(=O)(=O)c2cccc3nonc23)c(OC)c1	6.2
CCOc1ccc(C(C)=O)cc1COC(=O)c1cnc(Cl)c(Cl)c1	14.6
COc1cccc(C(=O)NCC2(c3ccccc3)CCCC2)c1	15.3
COc1ccccc1N(CC(=O)NC(C)(C)C)C(=O)C1CSC(=O)C1 (centres undefined)	23.2
CCCn1c(=O)c(C(=O)OCC)c(O)c2cc(Br)ccc21	21.9
COc1ccc(NC(=O)COC(=O)Cn2nnc3ccccc32)cc1	4.1
CCn1c(SCC(=O)C(C)(C)C)nnc1-c1cnccn1	1.2
CCOc1ccc(NC(=O)CCSc2ccc3ccccc3n2)cc1	19.4
O=C(Cc1ccccc1)Nc1cccc([N+](=O)[O-])c1	12.4
COc1ccc(C2=NN(c3nc4ccccc4s3)C(=O)C2)cc1	47.4
COc1ccc(SCCC(=O)NCc2ccncc2)cc1	-9.6
CCCc1nc2c(c(=O)c3ccccc3n2C)c(=O)n1C1CCCCCC1	15.9
COc1ccc(CNC(=O)CN(c2ccc(OC)cc2)S(=O)(=O)c2c(C)nn(C)c2C)cc1	-1.3
CCN(CC)S(=O)(=O)c1cccc(NC(=O)COC(=O)c2cccs2)c1	8.0
CC(=O)Nc1ccc(NC(=O)C2CC(=O)N(c3cccc(Cl)c3)C2)cc1 (centres undefined)	25.1
CCOc1ccc(NC(=O)c2ccc(NC(=O)Cc3n[nH]c(=O)c4ccccc34)cc2)cc1	17.4
Further records:
SMILES	Calb biofilm kill
c1ccc2[nH]c(NCc3ccc4c(c3)OCO4)nc2c1	14.5
CCOC(=O)Cn1nc(-c2ccc(C)cc2)c2ccccc2c1=O	23.8
C=CCN(CC=C)C(=O)c1cc(Cl)ccc1[N+](=O)[O-]	18.2
CC(C)N(C(=O)c1ccc2nc(-c3ccccc3)c(-c3ccccc3)nc2c1)C(C)C	16.4
CC(C)OCCCNC(=O)C1CCC(CNS(=O)(=O)c2ccc(Cl)cc2)CC1 (centres undefined)	14.4
Cc1onc(C(=O)NCc2cccs2)c1[N+](=O)[O-]	24.7
COc1cccc(NC(=O)C(Sc2nnc(-c3ccncc3)n2-c2ccc(Cl)cc2)c2ccccc2)c1 (centres undefined)	10.7
O=C(NCC1CCCO1)c1ccc2c(=O)n(Cc3ccc(Cl)cc3)c(=S)[nH]c2c1 (centres undefined)	6.2
O=C(NC(=S)Nc1ccc(N2CCOCC2)cc1)c1ccco1	15.9
CCCCNC(=O)C1CCN(c2nc(C)cc(C)n2)CC1	12.9
Cc1ccccc1NC(=O)/C=C1\SC(=O)NC1=O	14.5
CSc1sc(C)cc1C=O	6.4
O=C(O)CC(NC(=O)c1sc2ccccc2c1Cl)c1ccc(OC2CCCC2)cc1 (centres undefined)	-4.9
Cn1c(N)c(S(=O)(=O)N2CCN(C(=O)c3ccco3)CC2)c(=O)n(C)c1=O	18.6
COc1ccccc1/C=C/C=NC1C(=O)N(c2ccccc2)[N+](C)=C1C (centres undefined)	17.3
CC(CNS(=O)(=O)c1ccccc1)(c1ccccc1)N1CCOCC1 (centres undefined)	10.2
Cc1cc(N2CCOCC2)nc(-c2ccccc2O)n1	1.4
CC(OC(=O)CCc1nc2ccccc2c(=O)[nH]1)C(=O)NC1CCCC1 (centres undefined)	19.6
Cc1ccc(-c2cc(C(=O)Nc3cccnc3)[nH]n2)c(O)c1C	24.7
Clc1nc(-c2ccccc2)cc(-c2ccccc2)n1	3.6
O=C(NCCc1ccccc1)c1cc(=O)[nH]c2ccccc12	-2.6
O=C(CC(c1ccccc1)(c1ccccc1)c1ccccc1)N[C@@H](Cc1ccc(O)cc1)C(=O)O	23.6
Cn1c(=O)c([N+](=O)[O-])c(Oc2ccccc2)c2ccccc21	32.5
O=S(=O)(NNc1nccc(C(F)(F)F)n1)c1cccc(Cl)c1Cl	5.5
Cc1ccccc1NC(=O)COC(=O)Cc1cccc(C(F)(F)F)c1	19.7

In the list so far, these have bromine:
SMILES	Calb biofilm kill
Cc1ccc2nc(N(CCCN(C)C)C(=O)c3ccc(Br)s3)sc2c1	15.6
CCCn1c(=O)c(C(=O)OCC)c(O)c2cc(Br)ccc21	21.9

Carrying on.
SMILES	Calb biofilm kill
COC(=O)c1ccc(S(=O)(=O)N2CCN(C(c3ccccc3)c3ccccc3)CC2)n1C	13.7
C=CCC1C=C(C)CC(CC=C)N1 (centres undefined)	13.9
Cc1cc(Br)c(NC(=O)c2ccccc2[N+](=O)[O-])cc1C	-10.9
CCN(CC)C(=O)CSc1nc2cc3c(cc2c(=O)n1Cc1ccco1)OCO3	11.9
CCOC(=O)CNC(=S)N(CCCN1CCCCCC1)Cc1cccs1	8.6
O=C(CSc1nnnn1-c1ccccc1)c1ccco1	12.8
O=[N+]([O-])c1cc(/C=N/O)ccc1Oc1cccc(Cl)c1	15.5
CN(C)CCCN(C(=O)c1cccc(N2C(=O)CCC2=O)c1)c1nc2cc3c(cc2s1)OCO3	16.6
O=C(COc1ccc(Cc2ccccc2)cc1)c1ccc(F)cc1	13.9
CN(CC(=O)Nc1ccccc1Cl)C(=O)c1cc(=O)[nH]c2ccccc12	13.4
COc1ccc(-c2nc3ccc(C(=O)NCC(OC)OC)cc3nc2-c2ccc(OC)cc2)cc1	9.7
COc1ccc(C(=O)NC(Nc2ccc(C)cc2)C(Cl)(Cl)Cl)cc1 (centres undefined)	7.1
CC(C)c1ccc(NC(=O)COC(=O)c2c[nH]c(=O)[nH]c2=O)cc1	7.5
O=C1CN(C(=O)/C=C/c2cccc(Cl)c2)c2ccccc2N1	8.8
N#CCSc1ccc(-c2nc3ccccc3[nH]2)cn1	4.7
CCOc1ccccc1CNC(=O)c1ccc(Sc2ccc(Cl)cc2)c(NC(C)=O)c1	9.3
Cc1ccc(/C([O-])=C(/C(=S)NCc2ccco2)[n+]2ccccc2)cc1[N+](=O)[O-]	-0.2
CC(=O)Oc1ccc2cc(-c3ccccc3)c(=O)oc2c1	21.6
CCOCCn1c(SC(C)C(C)=O)nc2c1c(=O)[nH]c(=O)n2C (centres undefined)	20.8
O=C(Nc1ccccc1)C1=C[C@@H](C2CC2)C[C@@H](OCc2ccc(CO)cc2)O1	12.3
CCOC(=O)Cc1csc(NC(=O)Cc2ccccc2[N+](=O)[O-])n1	15.0
OC1(c2ccccn2)COc2ccccc2O1 (centres undefined)	12.0
Cc1c(C(=O)NCCCc2ccccc2)cccc1[N+](=O)[O-]	7.8
NC(=O)C1CCCN(C(=S)Nc2ccccc2)C1 (centres undefined)	9.8
Cc1ccc(SCC(=O)N2CCc3ccccc32)cc1	9.3
Additional compounds:
SMILES	Calb biofilm kill
O=C(O)c1ccccc1C(=O)Nc1ccc(-c2csc(-c3ccccc3)n2)cc1	18.4
CC(C)C12CN(C(=O)c3ccccc3[N+](=O)[O-])CC(C(C)C)(CN(C(=O)c3ccccc3[N+](=O)[O-])C1)C2=O	14.1
c1ccc(CN2CCC(Nc3nc(-c4cccs4)nc4ccccc34)CC2)cc1	14.8
CCC(CC)NC(=O)Nc1ccccc1C	9.9
CCCCC(=O)NS(=O)(=O)c1ccc(NS(C)(=O)=O)cc1	8.2
O=C(O)c1ccc(-c2nc(-c3ccc(Cl)cc3Cl)cs2)cc1	15.8
Cc1ccc(NC(=O)CN(c2ccc(C)cc2)S(=O)(=O)c2cccc3nonc23)cc1	12.1
CCn1c(-c2cccs2)nc2ccccc21	8.4
O=C(Nc1nc2ccccc2s1)C1c2ccccc2Oc2ccccc21	3.3
COCCNC(=O)C(NC(=O)C1CCCCC1)C12CC3CC(CC(C3)C1)C2 (centres undefined)	0.7
CC1=NN2C(=N)/C(=C\c3cc(C)n(-c4ccccc4)c3C)C(=O)N=C2S1	5.0
CC1(C)Cc2nc(Cl)c(C(=O)O)cc2CO1	12.1
CC1(C)CC(=O)C2=C(C1)OC(=O)CC2c1cccs1 (centres undefined)	10.4
Cc1cccc(CNC(=O)CCc2nnc(C3CCCCC3)o2)c1	12.7
Cc1ccccc1N1C(=O)C(Oc2ccc(Cl)cc2)C1CNC(C)(C)C (centres undefined)	16.3
C=CCNc1nc(NC(C)(C)CO)nc(OC)n1	14.9
Cc1cc(Cl)ccc1Oc1ncnc2onc(C)c12	-0.5
O=c1c2ccccc2nnn1CSc1nc2ccccc2[nH]1	-2.8
O=C1CCC(C(=O)OCC(=O)c2ccccc2)N1 (centres undefined)	16.7
Cc1ccccc1NC(=O)C(=Cc1ccc(C(=O)O)cc1)C(=O)Nc1ccccc1C	2.6
Cn1c(N2C(=O)CC(Cc3ccccc3)C2=O)nc2ccccc21 (centres undefined)	9.3
O=C(Nc1ccc(Br)cc1)c1cccc(N2C(=O)C3C4CCC(C4)C3C2=O)c1 (centres undefined)	0.8
CCOC(=O)c1[nH]c2ccc(OC)cc2c1NC(=S)N1CCN(c2cccc(Cl)c2)CC1	0.4
O=C(NCCCn1ccnc1)C(=O)NCc1ccc(Cl)cc1	12.9
O=C(CSc1n[nH]c(=O)n1Cc1ccco1)Nc1ccccc1	1.4
Continuation.
SMILES	Calb biofilm kill
COc1ccc(C2(CNC(=O)C(c3ccccc3)c3ccccc3)CCOCC2)cc1OC	6.9
O=C(CSc1nnc(-c2cccnc2)s1)Nc1cccc(C(=O)O)c1	27.1
C=C(C)C(=O)N1CC2(CC(c3cccc(NC(=O)CC(c4ccccc4)c4ccccc4)c3)=NO2)C[C@H]1C(N)=O (some centres undefined)	12.6
O=C(N/N=C\c1cccc(Cl)c1)c1ccc(Cn2cc(Br)c([N+](=O)[O-])n2)o1	4.6
O=C(N/N=C/C=C\c1ccccc1[N+](=O)[O-])c1cc(-c2ccc3ccccc3c2)n[nH]1	8.4
COc1cc(/C=C/C(=O)OCC(=O)Nc2c(C)n(C)n(-c3ccccc3)c2=O)ccc1OCC#N	12.5
O=C(O)CN1C(=O)C2C3CC(C2C1=O)C1C(c2ccc(F)cc2)c2sc(=O)[nH]c2SC31 (centres undefined)	22.1
CCOC(=O)N1CCN(c2cc(N(C)CCO)c([N+](=O)[O-])c3nonc23)CC1	15.2
Cc1cccc2sc(NC(=O)CCn3cccc3)nc12	7.1
COc1ccc(-c2[nH]ncc2CN2CCN(c3ccccn3)CC2)c(OC)c1	14.7
S=c1nc(-c2ccccc2)c(-c2ccccc2)n[nH]1	20.2
COc1cccc(NC(=O)C(=O)NCCc2ccc(F)cc2)c1	19.2
O=C(NC(=S)N1CCCc2ccccc21)c1ccc(Br)cc1	13.7
CCn1c(SCc2ccc(Cl)c(Cl)c2)nnc1C(C)NC(=O)c1ccc(OC)cc1 (centres undefined)	15.2
CC(=O)c1ccc(NC(=O)Nc2ccc(Br)cc2C)cc1	7.3
[O-]/C(=C(\C(=S)NCc1ccccc1)[n+]1ccccc1)c1ccc(Cl)cc1	9.5
COc1ccc(C(=O)N2CC(=O)Nc3ccccc32)cc1S(=O)(=O)N1CCCC1	1.6
COC(=O)c1cc([N+](=O)[O-])ccc1N1CCN(Cc2ccccc2)CC1	2.8
CN(C)CCCn1c(=O)n(CCc2ccccc2)c(=O)c2c3c(sc21)CCCCC3	14.2
O=C(COc1ccccc1)NNc1nc2ccccc2s1	20.1
O=C(COC(=O)CCCc1nc2ccccc2s1)Nc1ncc(Cl)cc1Cl	21.1
S=C(NCc1cccnc1)NCc1cccnc1	23.8
COc1cc2c(cc1OC)/C(=C/c1ccc(Br)cc1)C(=O)OC2	20.7
Cc1cc(C(=O)COc2ccc(F)cc2Br)c(C)n1C	7.1
CCn1cc(C(=O)N2CCc3ccccc32)c(=O)c2cc(S(=O)(=O)N3CC(C)CC(C)C3)ccc21 (centres undefined)	20.4
Additional records.
SMILES	Calb biofilm kill
O=C(CN1CCN(S(=O)(=O)c2ccc3ccccc3c2)CC1)Nc1ccc(N2CCOCC2)cc1	-6.4
Cc1ccc2nc(=O)c(NNc3ccccc3)cnc2c1	11.9
CCN(C(=O)Cn1c(=O)n(-c2cc(OC)c(OC)c(OC)c2)c(=O)c2ccccc21)c1cccc(C)c1	20.2
COc1ccc(S(=O)(=O)NC2(C(F)(F)F)N=C(c3ccccc3)NC2=O)cc1 (centres undefined)	16.7
Cn1nc(C(F)(F)F)c(-c2ccc(Br)cc2)c1NC(=O)Nc1ccc(F)cc1F	20.7
O=C(COc1ccc2c(c1)CCC2)N1CCN(c2ccccc2F)CC1	16.4

4 entries picked at random from those above:
SMILES	Calb biofilm kill
O=C(COc1ccc2c(c1)CCC2)N1CCN(c2ccccc2F)CC1	16.4
O=C(CN1CCN(S(=O)(=O)c2ccc3ccccc3c2)CC1)Nc1ccc(N2CCOCC2)cc1	-6.4
COc1ccc(S(=O)(=O)NC2(C(F)(F)F)N=C(c3ccccc3)NC2=O)cc1 (centres undefined)	16.7
Cc1ccc2nc(=O)c(NNc3ccccc3)cnc2c1	11.9

Bioassay records as filed in PubChem BioAssay.

Only part of the results is shown; the hit share may differ from the screen's.
